KCNQ2 block: KCNQ2 potassium channel inhibitors, primary screen, cell-based, CHO-K1, FluxOR thallium flux, B-score (AID 2156) | O88943 | 20 min; hits give low values; only compounds with negative scores are shown here; some inactives read as strong as hits | B-score at 10 µM | hit rate 1.1% among 310,000;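 active = fluorescence ratio B-score at most minus 3 library SDs, with starting brightness B-score within 2 library SDs, cut at about -5.5 in these data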
Target sequence (O88943 whole entry, looked up): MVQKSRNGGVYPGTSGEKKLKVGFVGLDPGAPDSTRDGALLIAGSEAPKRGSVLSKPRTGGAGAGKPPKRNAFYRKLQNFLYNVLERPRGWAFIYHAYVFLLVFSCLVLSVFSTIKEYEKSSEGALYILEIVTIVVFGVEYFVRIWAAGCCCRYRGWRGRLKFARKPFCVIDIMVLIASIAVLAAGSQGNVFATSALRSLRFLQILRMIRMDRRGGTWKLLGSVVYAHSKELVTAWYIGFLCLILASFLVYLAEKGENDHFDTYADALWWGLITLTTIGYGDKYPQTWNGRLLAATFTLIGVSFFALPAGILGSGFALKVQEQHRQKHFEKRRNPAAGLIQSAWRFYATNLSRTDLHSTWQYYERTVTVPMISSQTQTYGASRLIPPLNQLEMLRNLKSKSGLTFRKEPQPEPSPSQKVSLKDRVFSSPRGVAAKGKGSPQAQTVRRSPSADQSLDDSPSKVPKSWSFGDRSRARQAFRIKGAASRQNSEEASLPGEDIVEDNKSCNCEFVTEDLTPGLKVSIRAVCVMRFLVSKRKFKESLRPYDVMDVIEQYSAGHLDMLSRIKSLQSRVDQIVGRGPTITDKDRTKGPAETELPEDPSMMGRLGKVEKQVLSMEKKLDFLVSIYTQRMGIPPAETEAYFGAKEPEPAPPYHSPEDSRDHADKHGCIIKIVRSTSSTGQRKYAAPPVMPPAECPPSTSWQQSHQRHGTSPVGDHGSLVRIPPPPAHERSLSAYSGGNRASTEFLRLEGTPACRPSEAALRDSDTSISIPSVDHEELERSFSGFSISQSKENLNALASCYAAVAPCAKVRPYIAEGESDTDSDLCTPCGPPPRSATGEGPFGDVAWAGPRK
KCNQ2 block baseline: recorded beside KCNQ2 block, whose call it bears; B-score; measured here: initial fluorescence intensity artifact check;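 brightness before thallium and not channel activity; 0 = typical well and far values either way flag optical interference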
Active calls of the source: *.

What do the screens show for `CNC(=O)C(=O)N/N=C/c1cccnc1`?
KCNQ2 block: inactive; KCNQ2 block baseline: -1.1

What do the screens show for `Cn1c(O)c(/C=C2\C=Nc3ccccc32)sc1=Nc1ccc(C(=O)O)cc1`?
KCNQ2 block: inactive; KCNQ2 block baseline: 0.3

What do the screens show for `O=C(Nc1ccc(S(=O)(=O)N2CCOCC2)cc1)c1ccc(Br)o1`?
KCNQ2 block: inactive; KCNQ2 block baseline: 0.55

How did Cc1ccc(-n2nc3c(=O)n(CC(=O)NCCc4ccccc4C)nc(C)c3c2C)cc1 do in these assays?
KCNQ2 block: inactive; KCNQ2 block baseline: 1.3

Results for CC1CCCC(C)N1C(=O)COC(=O)c1cc(Br)ccc1Cl (stereo not drawn) ?
KCNQ2 block: inactive; KCNQ2 block baseline: -0.08

What do the screens show for `COc1cccc(-c2nnn(CC(=O)NC3CCCC3)n2)c1OC`?
KCNQ2 block: inactive; KCNQ2 block baseline: 1.1

Results for CCOc1ccc(Br)cc1C(=O)N/N=C/c1cccc(C)n1 ?
KCNQ2 block: inactive; KCNQ2 block baseline: -0.94

How did CC(C)(C)NC(=O)NC(=O)COc1ccc(Br)cc1Br do in these assays?
KCNQ2 block: inactive; KCNQ2 block baseline: 0.41

Results for COc1ccccc1C(=O)Nc1ccc(Br)c2cccnc12 ?
KCNQ2 block: inactive; KCNQ2 block baseline: 2.2

Results for Cc1ncc([N+](=O)[O-])n1CC(=O)Nc1ccc(F)c(F)c1 ?
KCNQ2 block: inactive; KCNQ2 block baseline: -0.06

How did O=S(=O)(NC1CC1)c1ccc(S(=O)(=O)N(Cc2ccccn2)C2CCCC2)cc1 do in these assays?
KCNQ2 block: inactive; KCNQ2 block baseline: -0.02

Results for CCCCCCNC(=O)CC(NS(=O)(=O)c1ccc(OC)cc1)C(C)C (stereo not drawn) ?
KCNQ2 block: inactive; KCNQ2 block baseline: -0.1

Results for CN(C)C(CNC(C(=O)Nc1ccc([N+](=O)[O-])cc1Br)c1ccccc1)c1ccccc1 (stereo not drawn) ?
KCNQ2 block: inactive; KCNQ2 block baseline: -1.6

How did CC(C)(C)OC(=O)N1Cc2ccccc2C[C@H]1C(=O)N1CCC[C@H]1C(=O)O do in these assays?
KCNQ2 block: inactive; KCNQ2 block baseline: -0.29

Results for O=C(N/C(=C\c1cccs1)C(=O)N1CCCCCC1)c1ccccc1 ?
KCNQ2 block: inactive; KCNQ2 block baseline: -0.44

How did CSc1nc2ncc(C(=O)O)c(N)n2n1 do in these assays?
KCNQ2 block: inactive; KCNQ2 block baseline: -0.67

What do the screens show for `CCn1cc(C(=O)NCCc2ccc(Cl)cc2)c(=O)c2ccc(C)nc21`?
KCNQ2 block: inactive; KCNQ2 block baseline: 1.8

Results for COc1cc2c(cc1OC)C(C)N(S(=O)(=O)c1ccc(Cl)nc1)CC2 (stereo not drawn) ?
KCNQ2 block: inactive; KCNQ2 block baseline: 1.5

Results for CCOC(=O)c1c(C)[nH]c(C2=NNC(=Nc3ccccc3)SC2)c1C ?
KCNQ2 block: inactive; KCNQ2 block baseline: 0.61

Results for N/C(=N\OC(=O)COc1ccc(Br)cc1Cl)c1cccnc1 ?
KCNQ2 block: inactive; KCNQ2 block baseline: 0.11

How did COc1ccc(OC)c(Nc2cc(C)nc3nc(C)nn23)c1 do in these assays?
KCNQ2 block: inactive; KCNQ2 block baseline: 0.88

Results for CCn1cc(C(=O)NCc2ccc3c(c2)OCO3)c(=O)c2cc(F)c(N3CCN(C(=O)c4ccco4)CC3)cc21 ?
KCNQ2 block: inactive; KCNQ2 block baseline: -0.86

How did Cc1ccccc1N1CCN(CCCOc2ccc3c(C)cc(=O)oc3c2)CC1 do in these assays?
KCNQ2 block: inactive; KCNQ2 block baseline: -0.08

What do the screens show for `Cn1nc(C(=O)N2CCN(c3ccc(Cl)cc3)CC2)c2c1-c1ccccc1S(=O)(=O)C2`?
KCNQ2 block: inactive; KCNQ2 block baseline: 0.61

How did CCn1nc(C(=O)N2CCc3ccccc3C2)c2ccccc2c1=O do in these assays?
KCNQ2 block: inactive; KCNQ2 block baseline: -2

What do the screens show for `Cc1ccccc1N(CC(=O)NC1CCCCC1)C(=O)c1csnn1`?
KCNQ2 block: inactive; KCNQ2 block baseline: 0.22

Results for COc1cc(OC)c(C2Oc3nc(SC)nnc3-c3ccccc3N2C(C)=O)cc1OC (stereo not drawn) ?
KCNQ2 block: inactive; KCNQ2 block baseline: 0.2

Results for O=C(Nc1ccc(Cl)cc1)NC1CCCCC1Cc1ccco1 (stereo not drawn) ?
KCNQ2 block: inactive; KCNQ2 block baseline: -1.1

How did COc1ccccc1CCN1C(=S)NC(C)(C)CC1(C)O (stereo not drawn) do in these assays?
KCNQ2 block: inactive; KCNQ2 block baseline: 0.92

What do the screens show for `CCCn1c(/N=C/c2cc(OC)ccc2O)nc2ccccc21`?
KCNQ2 block: inactive; KCNQ2 block baseline: 0.26

What do the screens show for `CSc1ncc(Cl)c(C(=O)Nc2ccccc2Cl)n1`?
KCNQ2 block: inactive; KCNQ2 block baseline: 0.62

What do the screens show for `O=C(C1CCC(CNS(=O)(=O)c2cccc3nsnc23)CC1)N1CC=C(c2ccccc2)CC1` (stereo not drawn)?
KCNQ2 block: inactive; KCNQ2 block baseline: 1.3

Results for OCCCN1c2ccccc2Nc2nnc(-c3ccccc3)cc21 ?
KCNQ2 block: inactive; KCNQ2 block baseline: -0.11

Results for COc1ccc(OC)c(/C(C)=N/Nc2ccc(C(=O)O)cc2)c1 ?
KCNQ2 block: inactive; KCNQ2 block baseline: 1

How did O=C(COc1cc(Cl)c(Cl)cc1Cl)Nc1ccncc1 do in these assays?
KCNQ2 block: inactive; KCNQ2 block baseline: -0.45

Results for Cc1ccc(C(=O)OCC(=O)Nc2ccc3c(c2)OCO3)o1 ?
KCNQ2 block: inactive; KCNQ2 block baseline: -0.01

Results for O=C(NCCCNC(=O)c1cncc(O)c1)c1cncc(O)c1 ?
KCNQ2 block: inactive; KCNQ2 block baseline: -1.4

Results for O=C(Cn1ccn(-c2ccc(F)c(F)c2)c(=O)c1=O)NCCc1ccccc1 ?
KCNQ2 block: inactive; KCNQ2 block baseline: -1.5

Results for Cc1onc(-c2c(Cl)cccc2Cl)c1C(=O)N1CCN(c2ccccc2F)CC1 ?
KCNQ2 block: inactive; KCNQ2 block baseline: -1.6

How did CCCCc1nnc(NC(=O)CN2C(=O)c3ccccc3C2=O)s1 do in these assays?
KCNQ2 block: inactive; KCNQ2 block baseline: 1

Arranged by SMILES length (ascending): part of the list above.
What do the screens show for `CSc1ncc(Cl)c(C(=O)Nc2ccccc2Cl)n1`?
KCNQ2 block: inactive; KCNQ2 block baseline: 0.62

Results for OCCCN1c2ccccc2Nc2nnc(-c3ccccc3)cc21 ?
KCNQ2 block: inactive; KCNQ2 block baseline: -0.11

Results for Cc1onc(-c2c(Cl)cccc2Cl)c1C(=O)N1CCN(c2ccccc2F)CC1 ?
KCNQ2 block: inactive; KCNQ2 block baseline: -1.6

Next part.
How did CC1CCCN(Cc2c(C(=O)N3CCc4ccccc4C3)nc3ccc(Cl)cn23)C1 (stereo not drawn) do in these assays?
KCNQ2 block: inactive; KCNQ2 block baseline: -0.15

How did COc1ccc(OC)c(/C=N/N(C)c2ccccc2)c1 do in these assays?
KCNQ2 block: inactive; KCNQ2 block baseline: 0.58

Results for Cc1cccc(NC(=O)C2CCN(C(=O)[C@@H]3Cc4ccccc4CN3)CC2)c1 ?
KCNQ2 block: inactive; KCNQ2 block baseline: -1.5

What do the screens show for `COc1cc2nc(SCC(=O)NCCc3ccccc3)n(Cc3ccco3)c(=O)c2cc1OC`?
KCNQ2 block: inactive; KCNQ2 block baseline: 1.4

Results for CN(c1ccc(C(=O)N2CCN(c3ccccc3F)CC2)cc1)S(=O)(=O)c1ccccc1 ?
KCNQ2 block: inactive; KCNQ2 block baseline: 0.45

How did Cc1cc(C)nc(N(C#N)CCOc2ccc(Cl)cc2)n1 do in these assays?
KCNQ2 block: inactive; KCNQ2 block baseline: 0.16

How did Cc1ccccc1NS(=O)(=O)c1ccc(C(=O)N2CCN(S(=O)(=O)c3ccccc3)CC2)cc1 do in these assays?
KCNQ2 block: inactive; KCNQ2 block baseline: 0.45

How did O=C(CSc1nc2[nH]ncc2c(=O)[nH]1)Nc1ccccc1C(F)(F)F do in these assays?
KCNQ2 block: inactive; KCNQ2 block baseline: 0.62

How did CC(=O)Nc1ccc(S(=O)(=O)Nc2ccc3c(c2)C(=O)OC3)cc1 do in these assays?
KCNQ2 block: inactive; KCNQ2 block baseline: 0.55

Results for CCn1c2ccccc2c2cc(NC(=O)c3ccc(=O)oc3)ccc21 ?
KCNQ2 block: inactive; KCNQ2 block baseline: 5.9

How did C=CCOc1cccc(C(=O)N2CCCC(Nc3ccc4c(c3)OCCO4)C2)c1 (stereo not drawn) do in these assays?
KCNQ2 block: inactive; KCNQ2 block baseline: 0.45

What do the screens show for `C/C(CC(=O)Nc1ccccc1F)=N\NC(=O)Cc1ccc(Cl)cc1`?
KCNQ2 block: inactive; KCNQ2 block baseline: -0.5

Results for COc1ccc2[nH]c(C(=O)N3CCCN(Cc4ccc(F)cc4)CC3)cc2c1 ?
KCNQ2 block: inactive; KCNQ2 block baseline: 0.08

How did Cc1cccc(C2=NC(C(F)(F)F)(C(F)(F)F)c3c(n(-c4ccc(F)cc4)c(=O)[nH]c3=O)N2)c1 do in these assays?
KCNQ2 block: inactive; KCNQ2 block baseline: 0.43

Results for CCCOP(=O)(c1ccc(N(C)C)cc1)C(O)c1ccc(Br)cc1 (stereo not drawn) ?
KCNQ2 block: inactive; KCNQ2 block baseline: -0.32

Results for CCC(NC(=O)C1C2C=CC(C2)C1C(=O)O)c1ccc(C)cc1 (stereo not drawn) ?
KCNQ2 block: inactive; KCNQ2 block baseline: 0.06

Results for Cc1cc(C(F)F)n2ncc(C(=O)NCc3ccccc3C(F)(F)F)c2n1 ?
KCNQ2 block: inactive; KCNQ2 block baseline: -2

How did Cc1ccc(NC(C)C(=O)N/N=C/c2c[nH]c3ccccc23)cc1 (stereo not drawn) do in these assays?
KCNQ2 block: inactive; KCNQ2 block baseline: -0.45

Results for COc1ccc(N(CC(=O)NC2CCCCC2)C(=O)c2snc(C(N)=O)c2N)cc1 ?
KCNQ2 block: inactive; KCNQ2 block baseline: 3

What do the screens show for `COC(=O)C1=CN(c2cccc(Cl)c2)C=C(C(=O)OC)C1c1cccc(OC)c1`?
KCNQ2 block: inactive; KCNQ2 block baseline: -0.55

How did O=[N+]([O-])c1cccc(NC(=S)NCCc2ccccc2)c1 do in these assays?
KCNQ2 block: inactive; KCNQ2 block baseline: 0.6

Results for CCCn1c(SCC(=O)Nc2ccc3c(c2)OCCO3)nnc1-c1ccco1 ?
KCNQ2 block: inactive; KCNQ2 block baseline: 0.26

Results for Cc1cccc(-n2c(=O)c3ccccc3n3c(=S)[nH]nc23)c1C ?
KCNQ2 block: inactive; KCNQ2 block baseline: 0.22

What do the screens show for `Cc1cccc(C)c1NC(=S)N/N=C/c1ccccc1C(=O)O`?
KCNQ2 block: inactive; KCNQ2 block baseline: 0.09

How did O=C(CSc1ccccn1)N1CCN(S(=O)(=O)c2ccc(Cl)cc2)CC1 do in these assays?
KCNQ2 block: inactive; KCNQ2 block baseline: 0.9

What do the screens show for `COc1ccc(-c2nc(N)ncc2Oc2ccccc2Br)c(O)c1`?
KCNQ2 block: inactive; KCNQ2 block baseline: 0.79

How did Cc1ccc(Cl)cc1N1CCN(S(=O)(=O)c2ccc3c(c2)CC(=O)N3C)CC1 do in these assays?
KCNQ2 block: inactive; KCNQ2 block baseline: 0.01

Results for COc1ccc(-n2cc(-c3ccc(OC(F)F)cc3)[n+]3c2CCCCC3)cc1 ?
KCNQ2 block: inactive; KCNQ2 block baseline: 2.2

Results for COc1ccccc1NC(=S)N(CCc1ccc(OC)c(OC)c1)Cc1ccccn1 ?
KCNQ2 block: inactive; KCNQ2 block baseline: -3.4

Results for O=C(NCC1CCCO1)c1cccc(NC(=O)c2ccc(Br)cc2)c1 (stereo not drawn) ?
KCNQ2 block: inactive; KCNQ2 block baseline: -0.05

Results for Cc1c(N)c(C(C)(C)C)cc(C(C)(C)C)c1[N+](=O)[O-] ?
KCNQ2 block: inactive; KCNQ2 block baseline: 0.5

What do the screens show for `COc1ccc(C2(CNC(=O)c3cccs3)CCOCC2)cc1`?
KCNQ2 block: inactive; KCNQ2 block baseline: 1.4

What do the screens show for `O=C(c1ccc2c(c1)OCO2)N1CCC2(CC1)Oc1ccc(F)cc1C(=O)C21CC(c2cccnc2)=NO1` (stereo not drawn)?
KCNQ2 block: inactive; KCNQ2 block baseline: 0.21

What do the screens show for `COc1ccc(NC(=O)C(c2ccc(OC)cc2)N(C)C(=O)Cc2cccs2)cc1` (stereo not drawn)?
KCNQ2 block: inactive; KCNQ2 block baseline: -0.44

How did O=C(COc1ccc(F)cc1)N1CCc2ccccc2C1 do in these assays?
KCNQ2 block: inactive; KCNQ2 block baseline: -1.7

Six compounds drawn at random from the list so far, as already listed:
How did O=C(COc1ccc(F)cc1)N1CCc2ccccc2C1 do in these assays?
KCNQ2 block: inactive; KCNQ2 block baseline: -1.7

What do the screens show for `O=C(C1CCC(CNS(=O)(=O)c2cccc3nsnc23)CC1)N1CC=C(c2ccccc2)CC1` (stereo not drawn)?
KCNQ2 block: inactive; KCNQ2 block baseline: 1.3

Results for CCCOP(=O)(c1ccc(N(C)C)cc1)C(O)c1ccc(Br)cc1 (stereo not drawn) ?
KCNQ2 block: inactive; KCNQ2 block baseline: -0.32

What do the screens show for `Cn1c(O)c(/C=C2\C=Nc3ccccc32)sc1=Nc1ccc(C(=O)O)cc1`?
KCNQ2 block: inactive; KCNQ2 block baseline: 0.3

Results for CN(C)C(CNC(C(=O)Nc1ccc([N+](=O)[O-])cc1Br)c1ccccc1)c1ccccc1 (stereo not drawn) ?
KCNQ2 block: inactive; KCNQ2 block baseline: -1.6

How did Cc1ccc(NC(C)C(=O)N/N=C/c2c[nH]c3ccccc23)cc1 (stereo not drawn) do in these assays?
KCNQ2 block: inactive; KCNQ2 block baseline: -0.45

Source: PubChem (Johns Hopkins Ion Channel Center)

A portion of the library, so the mix of outcomes need not match the whole.
